# Screening results (PubChem)
# Rango complex inh: prevents formation of the Rango-importin beta complex; Q14974; Rango CFP/YFP FRET sensor + importin beta, 45 min; Potency, µM (highest dose often 92.2 µM), without a hit: at the highest dose inhibition of complex formation; 340,000 compounds, 0.031% hits; AID 540263; active = rising FRET ratio curve, often small or poorly fitted; inconclusive = mostly compound fluorescence or quenching in the first reads; inactive = flat curves in all reads;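 further: potency means the concentration at half of the fitted maximal effect; 0% = DMSO wells and 100% = buffer wells lacking importin beta; nearly all actives have a fitted effect of over 15% in size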
# Target sequence (Q14974 whole entry, looked up): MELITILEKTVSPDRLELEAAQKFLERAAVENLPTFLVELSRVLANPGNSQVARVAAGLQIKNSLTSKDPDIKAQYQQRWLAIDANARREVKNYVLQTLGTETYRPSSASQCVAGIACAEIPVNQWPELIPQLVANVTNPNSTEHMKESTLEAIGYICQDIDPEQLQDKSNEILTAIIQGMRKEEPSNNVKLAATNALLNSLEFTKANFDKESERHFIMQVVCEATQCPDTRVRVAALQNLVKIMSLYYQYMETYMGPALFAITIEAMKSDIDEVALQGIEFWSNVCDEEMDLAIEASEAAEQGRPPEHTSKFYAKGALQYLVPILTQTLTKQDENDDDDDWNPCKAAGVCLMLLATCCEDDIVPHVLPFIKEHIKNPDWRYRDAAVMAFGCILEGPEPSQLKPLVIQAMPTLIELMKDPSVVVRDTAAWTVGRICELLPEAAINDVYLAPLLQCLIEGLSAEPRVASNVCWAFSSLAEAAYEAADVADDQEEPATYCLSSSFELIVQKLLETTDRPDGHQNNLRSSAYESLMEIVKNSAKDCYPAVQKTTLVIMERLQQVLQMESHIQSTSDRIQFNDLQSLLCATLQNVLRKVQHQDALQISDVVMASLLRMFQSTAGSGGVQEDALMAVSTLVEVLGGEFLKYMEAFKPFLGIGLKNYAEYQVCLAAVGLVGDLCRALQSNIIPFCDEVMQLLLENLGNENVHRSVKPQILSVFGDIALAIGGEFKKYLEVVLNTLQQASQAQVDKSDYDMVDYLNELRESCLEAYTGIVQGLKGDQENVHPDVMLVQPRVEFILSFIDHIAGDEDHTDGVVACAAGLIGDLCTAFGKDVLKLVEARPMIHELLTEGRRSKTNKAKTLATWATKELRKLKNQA
#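 FRET biosensor (snurportin 1 IBB flanked by EYFP and cerulean), 50 nM, with compound 5 min, then 0.125 microM importin beta in PBS, 1 mM DTT, 0.02% Tween-20, 0.1% BSA. CFP/YFP ratio read after 45 min at room temperature; pre-read flags interference.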
# miR-21 reporter: miR-21 reporter, rising signal | 340,000 tested, under 10 active | HeLa miR-21 FLuc reporter, luciferase, 48 h | Potency, µM (doses to about 38.3 µM), for inactives: at the top dose reporter change, positive = more light; active = well fitted rising curve with a large enough effect; inconclusive = small, poorly fitted or top-dose-only effect; inactive = no such curve, though single readings can be large or run the other way;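 further: % of control where 0% means no effect; miR-21 action dims this reporter so a rising signal means less miR-21 action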
#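 HeLa miR-21-FLuc reporter line, endogenous miR-21; 2000 cells/well in DMEM/10% FBS; compound titration up to ~40uM final, 48 h, 37 degree Celsius; luciferase detection reagent, 15 min lysis, CCD luminescence.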
# Rango release inh: inhibitors of RanGTP-induced Rango-importin beta complex dissociation | O95149+P62826 | Biochemical FRET Rango-importin beta, RanGTP-induced dissociation | Potency, µM (series often up to 46.1 µM), without a hit: at the highest dose activity change, negative = inhibition | 340,000 compounds, 0.071% hits | AID 540253; active means falling FRET ratio curve, often poorly fitted, with flat reads before Ran was added; inconclusive means other falling curves, or compound fluorescence or quenching; inactive means flat or rising ratio curve;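 further: potency means the concentration at half of the fitted maximal effect; % of control where 0% means no effect; nearly all actives have a fitted effect of over 45% in size; -100% = wells without RanGTP and RCC1; the record marks most hits as doubtful in a second field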
#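 FRET read at 45 min, room temperature: inhibitors block the CFP/YFP signal rise when RanGTP (0.6 uM Ran, 2 mM GTP, 0.2 uM RCC1) frees Rango (0.1 uM) from importin beta (0.25 uM). Pre-read after 5 min compound exposure flags interference.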
# GLA inh pH 4.5: blocks human alpha-galactosidase A at pH 4.5 | activity change, negative = inhibition, % at 105 µM | purified enzyme, 4-MU-alpha-Gal fluorescence, pH 4.5 | 230,000 tested, under 10 active | P06280; inconclusive = small, poorly fitted or top-dose-only inhibition, or a rising curve; inactive = flat fitted curve, though single readings scatter; no compound was filed as active;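 further: 0% = full activity with enzyme and -100% = basal without enzyme; dose as in the result columns while the protocol names 77 µM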
# Active calls of the source: *; ? = inconclusive; . = not tested or not shown; & = joins results of further samples. An excerpt; the hit share may differ from the screen's.
Rango complex inh	miR-21 reporter	Rango release inh	GLA inh pH 4.5	structure
4.4%	.	7%	.	COc1ccc(S(=O)(=O)N(C)C[C@H]2Oc3ccc(NC(=O)NC4CCCCC4)cc3C(=O)N([C@H](C)CO)C[C@@H]2C)cc1
-0.7%	.	-10%	.	Cc1ccc2c(c1)C1CN(C)CCC1N2S(=O)(=O)c1ccc(C#N)cc1 (stereo unspecified)
3.1%	2%	21%	.	CC(C)CCOP(=O)(c1ccc(N(C)C)cc1)C(O)c1ccccc1 (stereo unspecified)
-0.6%	5%	-5%	.	COc1cccc(-c2ccc(NC(=O)C3CCCN(Cc4cnc(C)n4C)C3)cc2)c1 (stereo unspecified)
4.6%	-4%	5%	8	COc1ccc(CNC(=O)C(NS(=O)(=O)c2ccc3c(c2)CCCN3C(C)=O)C(C)C)cc1 (stereo unspecified)
3.0%	-18%	-7%	7	COc1ccc(-n2nnnc2SCC(=O)c2cc3ccccc3o2)cc1
-1.2%	25%	2%	-12	CN(C)S(=O)(=O)N1CCN(CC(O)COc2ccc(C(=O)c3ccccc3)cc2)CC1 (stereo unspecified)
-0.2%	2%	-3%	-9	CC1(C)CN2C(=O)c3ccccc3C2(C)S1 (stereo unspecified)
-5.7%	0%	8%	-8	COc1ccc(C(=O)N2CCN(S(=O)(=O)c3ccccc3)CC2)c(OC)c1
-0.7%	-1%	-8%	.	CN1CCN(Cc2nc3ccccc3n2C)CC1CCO (stereo unspecified)

Rango complex inh	miR-21 reporter	Rango release inh	GLA inh pH 4.5	structure
-4.6%	0%	6%	7	CC(C)C(c1nnnn1CCc1ccccc1)N1CCOCC1 (stereo unspecified)
-1.3%	-36%	0%	4	N/C(=N\OC(=O)c1cc(Cl)ccc1Cl)c1cccnc1
-2.8%	-2%&-1%	-7%	-2	COCCNC(=O)CSc1nc2cc3c(cc2c(=O)n1CCCC(=O)NCCc1ccc(OC)c(OC)c1)OCO3
-0.9%	-17%	-12%	0	Cn1c(=O)c([N+](=O)[O-])c(NCc2ccccc2)c2ccccc21
-3.6%	.	0%	.	Cc1cccc(C)c1NC(=O)COC(=O)/C=C/c1ccc(S(=O)(=O)N2CCOCC2)cc1
-0.4%	-44%	-12%	-3	Cc1ccc(Nc2n[nH]c(C)c2[N+](=O)[O-])cc1C
-1.5%	1%	3%	2	O=C(COC(=O)c1cccc(S(=O)(=O)N2CCCC2)c1)Nc1ccccc1
1.5%	0%	18%	.	O=C(NCc1nnc2c(C(F)(F)F)cc(Cl)cn12)c1cccnc1
-4.7%	-32%	-3%	1	Cc1ccc(NC(=O)C(=O)NCc2ccc(/C=N/NC(=O)c3c(C)nc4ccccn34)o2)cc1
0.4%	-8%	-9%	1	COc1ccccc1C(=O)Nc1ccc(S(=O)(=O)N2CCOCC2)cc1

Rango complex inh	miR-21 reporter	Rango release inh	GLA inh pH 4.5	structure
-1.8%	-4%	-1%	.	COc1cc(Cl)ccc1OCc1cc(C(=O)N(C)Cc2cccc3cnccc23)no1
15%	4%	7%	.	CC(C)[C@H](NC(=O)N1CCn2c1nc1ccccc12)C(=O)NC1CCCCC1
0.0%	-2%	-4%	0	CCCCNC(=O)Cc1ccc(C)cc1
-0.6%	-4%	-12%	0	Cc1sc(NC(=O)c2cc(-c3ccc(Cl)cc3)nc3ccccc23)c(C(N)=O)c1C
0.6%	-8%	-7%	-5	Cc1ccc(-n2nc(C)c3c2OC(N)=C(C#N)C3c2ccco2)cc1 (stereo unspecified)
2.2%	-2%	-10%	.	Cc1ccc(N(C)S(=O)(=O)c2csc(C(N)=O)c2)cc1C
-0.3%	-2%	-5%	1	COCCN(C(=O)CSc1nncn1-c1ccccc1)c1c(N)n(Cc2ccccc2)c(=O)[nH]c1=O
0.0%	-10%	15%	-3	O=C(Cc1ccc(-n2c(=O)c3ccccc3n(Cc3ccc(F)cc3)c2=O)cc1)NCC1CCCO1 (stereo unspecified)
-0.2%	.	2%	.	O=C(/C=C/c1ccccc1)Nc1cc(S(=O)(=O)N2CCOCC2)ccc1N1CCOCC1
-0.5%	-1%	-8%	.	Cc1cc(S(=O)(=O)NCc2ccccc2)ccc1OCC(=O)NCc1ccccn1

Rango complex inh	miR-21 reporter	Rango release inh	GLA inh pH 4.5	structure
4.0%	.	-5%	.	O=C(CCNS(=O)(=O)c1ccccc1)NNC(=O)COc1ccc(Cl)cc1
3.5%	-9%	-5%	4	CCCN(CCC)C(=O)NC1CC(=O)N(c2ccc(OC)cc2)C1 (stereo unspecified)
1.6%	-5%	-3%	6	O=C(NC1CCCC1)C(c1ccc(F)cc1)N(Cc1ccc(Cl)cc1)C(=O)CCl (stereo unspecified)
-3.5%	.	-3%	.	COC(=O)C1CC2(C(=O)OC)CC(C(=O)OC)(CC(C(=O)OC)C2=O)C1=O (stereo unspecified)
?	-4%	-9%	.	COC(CNC(=O)C1CCC(CNS(=O)(=O)c2c(C)cc(C)cc2C)CC1)OC (stereo unspecified)
0.3%	.	3%	.	C#CCOCCOCCOCCNc1nc(N2CCN(C(=O)[C@H](CCC(=O)O)n3cc([C@@H](N)[C@H](C)CC)nn3)CC2)nc(N2CCN(C(=O)[C@H](CCC(=O)O)n3cc([C@@H](N)CCSC)nn3)CC2)n1
-0.5%	3%	-20%	-1	CS(=O)(=O)N(Cc1ccc(Cl)cc1)c1ccc(C(=O)NCCC2=CCCCC2)cc1
?	-12%	2%	.	NC(=O)CC(NC(=O)c1ccc(Br)cc1)c1ccc(NC2CCCCCC2)c([N+](=O)[O-])c1 (stereo unspecified)
-0.1%	-2%	24%	5	O=C(O)c1ccc2c(c1)N(Cc1ccccc1)C(=O)c1ccccc1S2=O (stereo unspecified)
6.5%	-1%	4%	-4	O=C(N/N=C/c1ccc([N+](=O)[O-])cc1)c1cc2ccccc2o1

Rango complex inh	miR-21 reporter	Rango release inh	GLA inh pH 4.5	structure
-0.8%	-5%	0%	-13	CCC(=O)/C=C1\Sc2ccc(OC)cc2N1CCO
4.4%	.	2%	.	CC1CCN(S(=O)(=O)c2ccc(NC(=O)C3CCCCC3C(=O)O)cc2)CC1 (stereo unspecified)
-1.8%	-3%	4%	-6	COc1ccc(-c2cc(C(F)(F)F)nc(-n3ccnc3C)n2)cc1
3.7%	-5%	-10%	-3	CC(Cc1cccs1)NC(=S)Nc1ccc(Cl)cc1 (stereo unspecified)
5.2%	2%	4%	7	Cc1ccc(C2NC(=O)c3sc(=S)n(-c4ccccc4)c3N2)cc1 (stereo unspecified)
-1.3%	1%	24%	.	C=CCn1c(C)nnc1SCC(=O)NC1CC1
-3.4%	.	1%	.	Cc1ccc(NC(=O)COC(=O)c2ccc(Cl)nc2)cc1S(=O)(=O)N1CCCCC1
-0.8%	-3%	1%	.	Cc1ccc(N2C(=O)CC(Sc3ncccn3)C2=O)cc1C (stereo unspecified)
0.8%	4%	-21%	6	C=CCNc1nc(=S)[nH]c2cc(OC)c(OC)cc12
-3.8%	.	-12%	.	CC(OC(=O)c1ccc2ncsc2c1)C(=O)N(C)C1CCCCC1 (stereo unspecified)

Rango complex inh	miR-21 reporter	Rango release inh	GLA inh pH 4.5	structure
-0.2%	-2%	-17%	-13	CC(C)(C)c1ccc(C(=O)Nc2nonc2-c2nc3ccccc3[nH]2)cc1
-0.3%	?	-8%	.	O=C(CNC(=O)c1ccc2c(c1)OCO2)N/N=C/c1cc(Br)ccc1O
3.0%	-10%	11%	-3	CCCn1nnc(NC(=O)c2cc(Br)ccc2OC)n1
0.1%	-5%	-7%	-10	O=C(OC1CCS(=O)(=O)c2sccc21)c1ccccc1 (stereo unspecified)
-2.5%	-8%	0%	.	COc1ccc(S(=O)(=O)NCC2CC3C=CC2C3)cc1OC (stereo unspecified)
?	-16%	-9%	-5	S=c1[nH]ncc2ccccc12
2.6%	-3%	-1%	4	COc1cc(/C=N/NC(=O)c2cnn3c(C)cc(-c4ccccc4)nc23)ccc1O
6.3%	11%	-3%	-11	CCN(CC1COc2ccccc2O1)C(=S)Nc1ccc(F)cc1 (stereo unspecified)
?	-2%	-30%	2	Cc1noc(/C=C/N(C)C)c1S(=O)(=O)N1CCCC(C(=O)NCc2ccc(Cl)cc2)C1 (stereo unspecified)
1.8%	-13%	-16%	.	COc1ccc(CCNC(=O)c2cc(C)oc2C)cc1

Rango complex inh	miR-21 reporter	Rango release inh	GLA inh pH 4.5	structure
-0.5%	-20%	?	-4	COc1ccc(/C=C/C(=O)C2(O)CCCCC2)cc1
?	.	-10%	.	Cc1ccn2c(=O)nc(SCC(=O)N3CCC(C)CC3)nc2c1
?	.	-18%	.	CC(C)NC(=O)N(C)C[C@H]1Oc2ccc(NS(=O)(=O)c3ccccc3)cc2C(=O)N([C@H](C)CO)C[C@H]1C
-0.6%	-6%	-16%	-5	COCCCNC(=O)CCc1nc2cccnc2n1Cc1ccccc1
?	.	?	.	O=C(Nc1ccc(C(=O)N2CCCCC2)cc1)C1CCC1

# Quoted from the listing (16 entries):
Rango complex inh	miR-21 reporter	Rango release inh	GLA inh pH 4.5	structure
0.8%	4%	-21%	6	C=CCNc1nc(=S)[nH]c2cc(OC)c(OC)cc12
-3.8%	.	-12%	.	CC(OC(=O)c1ccc2ncsc2c1)C(=O)N(C)C1CCCCC1 (stereo unspecified)
-0.2%	-2%	-17%	-13	CC(C)(C)c1ccc(C(=O)Nc2nonc2-c2nc3ccccc3[nH]2)cc1
-0.3%	?	-8%	.	O=C(CNC(=O)c1ccc2c(c1)OCO2)N/N=C/c1cc(Br)ccc1O
3.0%	-10%	11%	-3	CCCn1nnc(NC(=O)c2cc(Br)ccc2OC)n1
0.1%	-5%	-7%	-10	O=C(OC1CCS(=O)(=O)c2sccc21)c1ccccc1 (stereo unspecified)
-2.5%	-8%	0%	.	COc1ccc(S(=O)(=O)NCC2CC3C=CC2C3)cc1OC (stereo unspecified)
?	-16%	-9%	-5	S=c1[nH]ncc2ccccc12
2.6%	-3%	-1%	4	COc1cc(/C=N/NC(=O)c2cnn3c(C)cc(-c4ccccc4)nc23)ccc1O
6.3%	11%	-3%	-11	CCN(CC1COc2ccccc2O1)C(=S)Nc1ccc(F)cc1 (stereo unspecified)
?	-2%	-30%	2	Cc1noc(/C=C/N(C)C)c1S(=O)(=O)N1CCCC(C(=O)NCc2ccc(Cl)cc2)C1 (stereo unspecified)
1.8%	-13%	-16%	.	COc1ccc(CCNC(=O)c2cc(C)oc2C)cc1
-0.5%	-20%	?	-4	COc1ccc(/C=C/C(=O)C2(O)CCCCC2)cc1
?	.	-10%	.	Cc1ccn2c(=O)nc(SCC(=O)N3CCC(C)CC3)nc2c1
?	.	-18%	.	CC(C)NC(=O)N(C)C[C@H]1Oc2ccc(NS(=O)(=O)c3ccccc3)cc2C(=O)N([C@H](C)CO)C[C@H]1C
-0.6%	-6%	-16%	-5	COCCCNC(=O)CCc1nc2cccnc2n1Cc1ccccc1
